Sa ugtP lethal: growth inhibition of ugtP-null S. aureus, primary screen, RN4220 ugtP deletion, OD600 | growth inhibition, % (no concentration beside the values) | 0.54% of 330,000 active | AID 1259309, 2017 | 16 h; some inactives read as strong as hits;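 active = z-score under -3 and OD600 up to 0.15 on both plates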;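 also: plate controls were untreated wells for no effect and antibiotic for full effect; wells of about 80 µL received 100 nL stock; the first replicate is given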
BJeLR lethal: MLPCN primary cell-based screen for lethality selective to Ras in HRASV12 cells | BJeLR (HRASV12) viability, CellTiter-Glo ATP luminescence, 48 h; reference of the scale not given here | inhibition, % (test concentration not listed) | 0.17% of 300,000 active;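 active = replicate mean above 50%; inconclusive = above 50% but judged a plate artefact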;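 also: 50 nL library stock added to about 25 µL; numbers are from one replicate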
PrP UTR inh: inhibition of PrP 5' UTR reporter expression. cell-based PrP 5' UTR mRNA reporter, plate reader. inhibition, % (no concentration beside the values). 0.35% of 340,000 active. AID 488862, 2010;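 active = every replicate at 50% or more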;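 also: 0 = median of the neutral control wells; tested in H4 reporter cells; numbers are from one replicate; inactives centre near -14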
Mtb hypoxia inh: PubChem AID 1159583. M. tuberculosis hypoxia-regulated fluorescent reporter, fluorescence. fluorescence inhibition, % (concentration not given with the values). 0.1% of 300,000 active;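 active = 35 to 45% if threefold the growth effect, above 45% if 1.5-fold the growth effect; inactive = the rest, general growth blockers included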;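 also: wells of about 50 µL received 100 nL stock; 0% = vehicle wells and 100% = reference inhibitor wells; whole bacteria with a GFP reporter of the hypoxia response; strong numbers were not always called active; many hits fall short of the cut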
Bead autofluor: flagged as autofluorescent in microsphere protease counterscreen. compound autofluorescence counterscreen, microsphere flow cytometry; stronger effect = higher value. fluorescence intensity (no concentration beside the values). 3.1% of 360,000 active. AID 624483;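 active = at least 3 SD above the mean of all compounds, about 16000 in these data; inconclusive = too few beads counted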;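 also: 100 nL of 1 mM stock went into each well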
Sa RN4220 lethal: growth inhibition of S. aureus RN4220, primary screen, OD600. 0.33% of 330,000 active. 16 h. inhibition, % (no concentration beside the values);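 active = z-score of -3 or lower and OD600 up to 0.18 on both plates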;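 also: plate controls were untreated cells for no effect and reference antibiotic for full effect; stock transfer was 100 nL into about 80 µL; one replicate is shown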
Mtb hypoxia inh growth: further read-out of Mtb hypoxia inh, marked with its call; growth inhibition, %; measured here: M. tuberculosis growth (absorbance);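 0% = vehicle and 100% = reference antibiotic; read after six days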
Numbers without * were called inactive; ? = inconclusive; · = not tested or not shown. Not a hit list; 4% or so of the library scored in one or more.

Below each compound: Sa ugtP lethal | BJeLR lethal | PrP UTR inh | Mtb hypoxia inh | Mtb hypoxia inh growth | Bead autofluor | Sa RN4220 lethal
CC(/C=C1\SC(=S)N(c2ccc(C(=O)O)cc2)C1=O)=C\c1ccccc1
 : · | -1 | -30 | · | · | 4522 | ·
CCOC(=O)C1C2COc3ccc(Cl)cc3C2N2C(=O)c3cc(F)ccc3NC(=O)[C@@]12C (stereo partly drawn)
 : -20 | · | · | -7 | 7 | · | -7.5
CC(=O)N1CCN(c2ccc(Nc3ncnc4c3oc3ccccc34)cc2)CC1
 : -25 | -3 | -26 | 9 | 16 | ? | 2.4
O=C(Nc1cccc(-n2cnnn2)c1)c1ccc(Cl)cc1Cl
 : 17 | 2 | -17 | 3 | 0 | 5490 | -4.9
Cc1cccc(NC(=O)c2ccc(OCc3c(C)noc3C)cc2)n1
 : 4 | · | 6 | 2 | 10 | 6236 | 2.8
Cc1cc([N+](=O)[O-])ccc1NC(=O)c1cccc(NC(=O)C(C)C)c1
 : 0 | 0 | -9 | 4 | 2 | 2641 | 3.2
Cn1nc([N+](=O)[O-])nc1Sc1nnnn1-c1ccc(C(=O)O)cc1
 : 6 | 6 | -9 | 7 | 0 | 4535 | 4.1
CCOc1c(OC(C)=O)ccc(/C=C/c2ccc3cccc(OC)c3n2)c1[N+](=O)[O-]
 : -14 | 1 | -71 | -1 | -2 | 2427 | -2.2
Cc1ccc(/C=N/N2CCN(Cc3ccc(Cl)cc3)CC2)o1
 : · | 7 | -14 | · | · | 2540 | ·
CCc1nnc(NC(=O)CC23CC4CC(CC(C4)C2)C3)s1
 : 4 | 20 | -25 | 5 | 4 | 4897 | -6.2
CCOc1ccc(NC(=O)COc2ccc(C(=O)NC(C)c3ccc(S(N)(=O)=O)cc3)cc2OC)cc1 (stereo not drawn)
 : 4 | -1 | -3 | 3 | 0 | 4570 | -0.6
N#Cc1ccc(NC(=O)Nc2ccc(Cl)cc2)cc1
 : -14 | 12 | -39 | · | · | 4324 | 34
CC1CCCCC1NC(=O)c1nn(C)c2c1CS(=O)(=O)c1ccccc1-2 (stereo not drawn)
 : 11 | 8 | -22 | 4 | 1 | 5346 | 1.8
O=C(CCc1ccccc1)Nc1ccc(Cl)cn1
 : 5 | 23 | -39 | · | · | 4873 | -1.8
CCN(CC)CC(O)CNc1ccnc2c(Cl)ccc(Cl)c12 (stereo not drawn)
 : -1 | · | -26 | 14 | 8 | 3503 | -0.8
CN(CC(=O)Nc1ccc(Cl)c(C(F)(F)F)c1)C(=O)c1ccc(S(=O)(=O)N2CCOCC2)cc1
 : -3 | · | -22 | 10 | 0 | 3657 | 4.7
Cn1c(=NC(=O)c2ccccc2[N+](=O)[O-])sc2cc(S(C)(=O)=O)ccc21
 : · | 0 | -61 | · | · | 2514 | ·
CN(C)/N=C/C=C1\CCC/C(=C\c2ccc(F)c(F)c2)C1=O
 : · | 7 | -86 | · | · | 3418 | ·
Cc1ccc(C(=O)NNC(=O)CCCCC(=O)NNC(=O)c2ccc(C)cc2)cc1
 : 7 | -14 | -17 | 8 | 1 | 4059 | 3.5
Cc1ccc(Nc2cc(=O)oc3ccccc23)c(C)c1
 : -7 | 11 | -10 | 12 | 13 | 9077 | 2.4
O=C(OCc1c(-c2ccccc2)ncc2ccccc12)c1ccc(Br)cc1
 : 0 | · | -10 | 13 | 12 | 3585 | 8.2
CC1C(=O)N2CCCc3cc(S(=O)(=O)NCc4ccc(Cl)cc4)cc1c32 (stereo not drawn)
 : -1 | 4 | -26 | 11 | 5 | 5047 | 12
Cn1cc(C(=O)c2cccc(Cl)c2Cl)cc1C(=O)O
 : -6 | -8 | 1 | -2 | 3 | 4248 | -0.1
O=C(Nc1nccs1)c1cc2sccc2n1Cc1ccc(F)cc1
 : -27 | 14 | 7 | -6 | -6 | 16836* | 3.2
Cc1cccc(NC(=O)N2CCC(C(=O)c3ccc(F)cc3)CC2)c1
 : -2 | -2 | -11 | 5 | 8 | 4521 | -2.8
CC(C)CC(=O)NC(=S)NCCc1ccccc1
 : 10 | -2 | -21 | · | · | 2936 | 3.2
C/C(C=NNc1nc(C)cc(C)n1)=C\c1ccc(C(C)C)cc1
 : 47 | · | · | -3 | 10 | · | 6.0
CCCNC(=S)N1CCN(C)CC1
 : 9 | -7 | -19 | 8 | 2 | 2102 | 3.5
COc1ccccc1-c1cc(C(F)(F)F)nc(N2CCN(c3ccccc3)CC2)n1
 : 8 | -8 | -21 | -1 | 5 | 12698 | -4.9
Cc1ccc(S(=O)(=O)NC(C(=O)N2CCOCCOCCOCC2)c2ccccc2)cc1 (stereo not drawn)
 : 15 | 10 | -20 | 5 | -10 | 4315 | 5.1
O=C(NN=Cc1cn[nH]c1-c1ccc(F)cc1)c1ccncc1
 : 7 | · | · | · | · | · | 7.5
CCN1C(=O)C2C(c3ccc(-c4ccc(C(C)=O)cc4)cc3)N[C@@](C)(C(=O)OC)C2C1=O (stereo partly drawn)
 : -1 | · | · | 3 | 6 | · | 4.1
COc1ccc(Cl)cc1N(CC(=O)N(C)C)S(=O)(=O)c1ccc(C)c([N+](=O)[O-])c1
 : 6 | -5 | -30 | 8 | 6 | 4025 | 2.5
COCCNC(=S)Nc1ccccc1[N+](=O)[O-]
 : 5 | 1 | -7 | 5 | 3 | 4942 | 0.6
COc1ccc(CNC(=O)COC(=O)c2ccc(OCc3c(C)noc3C)cc2)cc1OC
 : 0 | -15 | 1 | 8 | 7 | 1987 | 0.4
CCN(CC)S(=O)(=O)c1ccc(N2CCOCC2)c(NC(=S)NC(=O)c2ccco2)c1
 : -3 | 7 | -26 | -12 | -7 | 4932 | 7.3
O=C(Nc1ccccc1N1CCCC1)c1cccnc1Cl
 : -3 | 1 | -28 | 15 | 7 | 2947 | 6.5
COc1ccc(-n2nnnc2SC(C)C(=O)NC2CCCC2)cc1 (stereo not drawn)
 : -4 | · | -15 | -3 | 7 | 3744 | -1.4
Cc1cc2nc(-c3ccc(SCC(=O)N4CCN(C(=O)c5ccco5)CC4)nc3)[nH]c2cc1C
 : -27 | 21 | -42 | -16 | 1 | 7947 | 3.6
Cc1ccc(/C=N/NC(=O)c2cc(-c3ccccc3)nc3ccccc23)o1
 : · | -3 | -14 | · | · | 5808 | ·
Cc1cnc(=O)[nH]c1SCc1ccc([N+](=O)[O-])cc1
 : 4 | -10 | 0 | 9 | -1 | 5242 | 2.7
O=C(C1CCCN1S(=O)(=O)c1cccc2cccnc12)N1CCn2c1nc1ccccc12 (stereo not drawn)
 : 5 | 5 | -22 | · | · | 4864 | 0.7
COCCN(C(=O)COC(=O)/C=C/c1cccc(OC)c1)c1c(N)n(CC(C)C)c(=O)[nH]c1=O
 : 2 | · | -17 | 2 | -3 | ? | 2.2
CC(=O)c1cccc(NC(=O)C2CCN(S(=O)(=O)c3ccc(C)cc3)CC2)c1
 : 5 | -8 | 11 | · | · | 4706 | 1.8
Cc1ccc2nc3c(cc2c1)c(NC(=O)C(C)(C)C)nn3CC(C)C
 : -1 | -6 | -4 | -1 | -1 | 2974 | -2.6
CCOC(=O)c1c(NC(=O)OC)sc2c1CCC2
 : 9 | 2 | -9 | · | · | 4188 | -1.0
CCNS(=O)(=O)c1ccc(CCC(=O)Nc2ccc(C(=O)OC)cc2)cc1
 : 0 | 1 | -14 | 2 | 5 | 4461 | 3.2
Cc1ccc(N2CCCCn3c2nc2c3c(=O)[nH]c(=O)n2C)cc1
 : -3 | -8 | 3 | · | · | 2685 | -0.1
COc1cccc(/C=C2\C(=O)C(=O)c3ccccc32)c1
 : 0 | -4 | -24 | 8 | 1 | 7588 | 1.5
COc1ccc(-c2nnc(SCC(=O)N3CCCC3)o2)cc1
 : -4 | -7 | -46 | 14 | 8 | 3450 | 3.1
Cc1nnc(SCc2ccccc2)nc1/C=C/NOCc1ccc(Cl)cc1Cl
 : -12 | -6 | 1 | · | · | 2624 | 11
Cc1ccc(C)c(N2CCN(C(=O)CCc3nc(-c4ccc(Br)cc4)no3)CC2)c1
 : 9 | · | -37 | -6 | 0 | 3000 | 7.4
COC(=O)CNC(c1ccccc1)c1cc(Cl)ccc1NC(=O)c1cccc(Cl)c1 (stereo not drawn)
 : -1 | -6 | -13 | 16 | 6 | 2887 | -6.8
N/C(=N\OC(=O)CSc1ccccc1)c1ccncc1
 : 4 | -6 | -50 | 8 | 5 | 5604 | 5.4
CCC1CCCCN1CCNC(=O)C1CCN(S(=O)(=O)c2cccc3nsnc23)CC1 (stereo not drawn)
 : 1 | -9 | -10 | -17 | 5 | 6230 | -1.8
CCc1nnc(NC(=O)Nc2ccccc2OC)s1
 : -6 | -7 | -61 | 2 | 1 | 22103* | 5.8
COC(=O)C1CCN(CC(=O)Nc2cc(Cl)ccc2OC)CC1
 : 4 | 14 | · | 13 | 11 | · | 1.6
Cc1ccc(NC(=O)c2ccc(OC(=S)N3CCOCC3)cc2)cc1
 : 0 | -13 | -60 | 12 | 11 | 3445 | 2.6
c1ccc(-c2csc(Nc3ncccn3)n2)cc1
 : -10 | 5 | -73 | -6 | -5 | 2637 | 3.2
Cc1cc(C)cc(C(=O)NCC(=O)OCC(=O)NC2CC2)c1
 : 2 | · | -6 | 8 | -2 | 4022 | -0.2

Part of the list above, field by field:
SMILES: N/C(=N\OC(=O)CSc1ccccc1)c1ccncc1
  Sa ugtP lethal: 4
  BJeLR lethal: -6
  PrP UTR inh: -50
  Mtb hypoxia inh: 8
  Mtb hypoxia inh growth: 5
  Bead autofluor: 5604
  Sa RN4220 lethal: 5.4
SMILES: CCC1CCCCN1CCNC(=O)C1CCN(S(=O)(=O)c2cccc3nsnc23)CC1 (stereo not drawn)
  Sa ugtP lethal: 1
  BJeLR lethal: -9
  PrP UTR inh: -10
  Mtb hypoxia inh: -17
  Mtb hypoxia inh growth: 5
  Bead autofluor: 6230
  Sa RN4220 lethal: -1.8
SMILES: CCc1nnc(NC(=O)Nc2ccccc2OC)s1
  Sa ugtP lethal: -6
  BJeLR lethal: -7
  PrP UTR inh: -61
  Mtb hypoxia inh: 2
  Mtb hypoxia inh growth: 1
  Bead autofluor: 22103*
  Sa RN4220 lethal: 5.8

(next part)
Below each compound: Sa ugtP lethal | BJeLR lethal | PrP UTR inh | Mtb hypoxia inh | Mtb hypoxia inh growth | Bead autofluor | Sa RN4220 lethal
COc1ccc(N2CCN(c3nc4c(C)cccn4c(=O)c3/C=C(\C#N)C(N)=O)CC2)cc1
 : -4 | -5 | -1 | -3 | 6 | 2651 | -0.2
CCOc1ccc(C(=O)Nc2ccc(S(=O)(=O)NCC3CCCO3)cc2)cc1OCC (stereo not drawn)
 : 17 | 7 | -11 | 1 | 3 | 6086 | -0.3
O=C(NCCN1CCCCC1)c1ccc2c(c1)OCCO2
 : -6 | -15 | -33 | 16 | 10 | 3688 | -13
CNC[C@@H](Cc1ccccc1)NC[C@@H](CC1CCCCC1)NCCCc1ccccc1
 : · | 92* | 13 | · | · | 4081 | ·
CN(C)S(=O)(=O)c1ccc(C(=O)NCCOc2ccc(F)cc2)cc1
 : 5 | -2 | -22 | -3 | 7 | 24248* | 2.6
Cc1nnc(NC(=O)CSc2nc(C(C)C)nc3sc(C)c(C)c23)s1
 : -2 | · | -8 | 2 | 0 | 5778 | 4.6
N#Cc1ccc(CSc2nnc3[nH]c(=O)cc(N)n23)cc1
 : -1 | 10 | -16 | 4 | 6 | 4276 | 4.4
NC(=O)c1ccc(N2CCN(c3ccccc3O)CC2)c([N+](=O)[O-])c1
 : 8 | -3 | -7 | 7 | 11 | 4099 | 8.0
Cc1nc(C(=O)NNC(=O)Nc2ccc(Cl)cc2)cs1
 : 3 | 4 | -1 | -5 | 13 | 3808 | 2.5
CCN1C(=O)N(CC)C2C1N(C(C)=O)C(=O)N2C(C)=O (stereo not drawn)
 : -4 | 0 | -15 | 3 | 4 | 3176 | -19
COc1cc(OC)cc(C(=O)Nc2nnc(-c3cccnc3)o2)c1
 : 5 | -4 | -79 | -2 | 12 | 4143 | 5.0
COc1ccccc1C(=O)Nc1sc2c(c1C(=O)NCc1ccco1)CCCC2
 : 0 | 5 | -6 | 9 | 12 | 4419 | 3.7
COc1ccccc1-c1nnc(NC(=O)c2ccc(S(=O)(=O)N3CCOCC3)cc2)o1
 : · | 0 | -14 | · | · | 5725 | ·
CCCCC(C)=CC(NP(=O)(c1ccccc1)c1ccccc1)c1ccccc1 (stereo not drawn)
 : -3 | · | · | 2 | -6 | · | -5.3

Compound activity from PubChem.
